StopGo FLuc: FMDV 2A StopGo reporter, firefly signal | HEK cells with a luciferase reporter of 2A StopGo recoding | Potency, µM (highest dose often 57.5 µM), for inactives: at the highest dose signal change, negative = less light | 0.23% of 120,000 active | AID 1745856; active = well fitted falling curve with a large enough effect; inconclusive = small, poorly fitted or top-dose-only effect; inactive = no such curve, though single readings can be large or run the other way; further: nearly all actives have a fitted effect of over 60% in size; overnight with compound
2A Renilla: lowers the Renilla signal of an FMDV 2A StopGo reporter | HEK cells with a luciferase reporter of 2A StopGo recoding | AID 1745857 | 0.32% of 120,000 active | Potency, µM (series often up to 57.5 µM), for the others: at the highest dose signal change, negative = less light; active means well fitted falling curve with a large enough effect; inconclusive means small, poorly fitted or top-dose-only effect; inactive means no such curve, though single readings can be large or run the other way; further: nearly all actives have a fitted effect of over 55% in size; overnight with compound
* hit, by the source's call; [ ] = dose if it differs, or a comment. On the % scale 0 is the no-effect control and ±100 the full control effect; potency means the concentration at half of the fitted maximal effect.

What do the screens show for `CCCN1C(=O)c2ccccc2CC1(C)C(=O)NC1CCCCC1` (centres undefined)?
StopGo FLuc: 11%; 2A Renilla: -9%

Results for O=C(Nc1ccccc1-c1ccccc1)c1cccc(Cl)c1 ?
StopGo FLuc: -4%; 2A Renilla: 27%

What do the screens show for `O=C(NCCc1csc(-c2cccnc2)n1)c1cccc(C(F)(F)F)c1`?
StopGo FLuc: 11%; 2A Renilla: 19%

What do the screens show for `c1ccc(C(CNCc2ccsc2)N2CCCC2)cc1` (centres undefined)?
StopGo FLuc: -10%; 2A Renilla: 2%

Results for O=C(O)/C=C/c1ccc(Br)cc1 ?
StopGo FLuc: 21%; 2A Renilla: 12%

How did CCCCn1nc(C(=O)N2CCC(C(=O)N3CCc4ccccc4C3)CC2)c2ccccc2c1=O do in these assays?
StopGo FLuc: 5%; 2A Renilla: 31%[activator]

Results for CC(=O)c1sc2ccccc2c1OC(=O)c1ccc(C(C)(C)C)cc1 ?
StopGo FLuc: 0%; 2A Renilla: -2%

What do the screens show for `O=C(COc1ccccc1Cl)OCc1cccc(COC(=O)COc2ccccc2Cl)c1`?
StopGo FLuc: 13%; 2A Renilla: 13%

Results for Cc1ccc(-c2cc(=O)c3cc(NC(=O)c4ccccc4F)ccc3o2)cc1 ?
StopGo FLuc: 96%[activator]; 2A Renilla: -3%

How did COc1ccc(CCNC(=O)C2=C(C)C(=O)OC23CCCCC3)c(OC)c1 do in these assays?
StopGo FLuc: 0%; 2A Renilla: -13%

What do the screens show for `CCOc1ccc(S(=O)(=O)N2CCN(c3c(C)cccc3C)CC2)c2ccccc12`?
StopGo FLuc: 6%; 2A Renilla: 11%

Results for CC(=O)c1ccc(NC(=O)Cn2cc(C(C)=O)c3ccccc32)cc1 ?
StopGo FLuc: 20%; 2A Renilla: 7%

How did CCCCOc1ccc2cc(C(=O)N3CCC(C(N)=O)CC3)[nH]c2c1 do in these assays?
StopGo FLuc: 86%[activator]; 2A Renilla: 35%[activator]

What do the screens show for `CCc1ccc(Nc2ccc3cc(S(=O)(=O)N4CCCC4)ccc3n2)cc1`?
StopGo FLuc: 4%; 2A Renilla: 73%[activator]

How did COc1cc(C(=O)NC2Cc3ccccc3C2)cc(OC)c1OC do in these assays?
StopGo FLuc: 23%; 2A Renilla: 35%[activator]

Results for CCOc1cc2c(cc1NC(=O)c1cc(C)ccc1OC)OC(C)C2 (centres undefined) ?
StopGo FLuc: 60%[activator]; 2A Renilla: 4%

Results for Cc1ccc(S(C)(=O)=O)cc1NCc1c(F)cccc1Cl ?
StopGo FLuc: 18%; 2A Renilla: 0%

Results for Oc1ccc(-c2nc(-c3ccccc3)cs2)cc1 ?
StopGo FLuc: 189%[activator]; 2A Renilla: 6%

What do the screens show for `COC(=O)c1ccc(NC(=O)CCOc2ccccc2)cc1`?
StopGo FLuc: 59%[activator]; 2A Renilla: 3%

How did Cn1c(=O)c2c(ncn2CCC(=O)NCc2ccc(F)cc2)n(C)c1=O do in these assays?
StopGo FLuc: 0%; 2A Renilla: -7%

Ordered by molar mass (low to high): part of the list above.
What do the screens show for `COC(=O)c1ccc(NC(=O)CCOc2ccccc2)cc1`?
StopGo FLuc: 59%[activator]; 2A Renilla: 3%

Results for Cc1ccc(S(C)(=O)=O)cc1NCc1c(F)cccc1Cl ?
StopGo FLuc: 18%; 2A Renilla: 0%

Results for CC(=O)c1ccc(NC(=O)Cn2cc(C(C)=O)c3ccccc32)cc1 ?
StopGo FLuc: 20%; 2A Renilla: 7%

Results for CCOc1cc2c(cc1NC(=O)c1cc(C)ccc1OC)OC(C)C2 (centres undefined) ?
StopGo FLuc: 60%[activator]; 2A Renilla: 4%

How did CCCCOc1ccc2cc(C(=O)N3CCC(C(N)=O)CC3)[nH]c2c1 do in these assays?
StopGo FLuc: 86%[activator]; 2A Renilla: 35%[activator]

How did Cn1c(=O)c2c(ncn2CCC(=O)NCc2ccc(F)cc2)n(C)c1=O do in these assays?
StopGo FLuc: 0%; 2A Renilla: -7%

Results for Cc1ccc(-c2cc(=O)c3cc(NC(=O)c4ccccc4F)ccc3o2)cc1 ?
StopGo FLuc: 96%[activator]; 2A Renilla: -3%

What do the screens show for `O=C(NCCc1csc(-c2cccnc2)n1)c1cccc(C(F)(F)F)c1`?
StopGo FLuc: 11%; 2A Renilla: 19%

What do the screens show for `CCc1ccc(Nc2ccc3cc(S(=O)(=O)N4CCCC4)ccc3n2)cc1`?
StopGo FLuc: 4%; 2A Renilla: 73%[activator]

What do the screens show for `CCOc1ccc(S(=O)(=O)N2CCN(c3c(C)cccc3C)CC2)c2ccccc12`?
StopGo FLuc: 6%; 2A Renilla: 11%

What do the screens show for `O=C(COc1ccccc1Cl)OCc1cccc(COC(=O)COc2ccccc2Cl)c1`?
StopGo FLuc: 13%; 2A Renilla: 13%

Next part:
How did Cc1ccc(-c2cc(C(=O)N3CCN(S(=O)(=O)c4ccc(Br)s4)CC3)[nH]n2)cc1C do in these assays?
StopGo FLuc: -9%; 2A Renilla: 4%

How did CCCn1nc(C(=O)NC(c2ccc(OCC)c(OCC)c2)C(C)C)c2ccccc2c1=O (centres undefined) do in these assays?
StopGo FLuc: 3%; 2A Renilla: -3%

How did COc1ccccc1CNC(=O)CCc1ncc(-c2ccccc2)o1 do in these assays?
StopGo FLuc: 33%; 2A Renilla: 10%

How did O=C(OCc1ccc(F)cc1)c1cc(S(=O)(=O)N2CCCCC2)ccc1N1CCOCC1 do in these assays?
StopGo FLuc: -7%; 2A Renilla: -6%

How did Cc1ccc(NC(=O)CN2C(=O)CCc3cc(S(=O)(=O)N4CCOCC4)ccc32)c(C)c1 do in these assays?
StopGo FLuc: -18%; 2A Renilla: -6%

Results for CC(Oc1ccc2c(-c3ccccc3)cc(=O)oc2c1)C(=O)NCCN1CCOCC1 (centres undefined) ?
StopGo FLuc: 12%; 2A Renilla: -3%

How did CCCOc1ccc(C2CC(=O)Nc3c2c(C)nn3-c2nncc(-c3cccc(OC)c3)n2)cc1OC (centres undefined) do in these assays?
StopGo FLuc: 11%; 2A Renilla: 39%[activator]

Results for COC(=O)c1[nH]c(C)c(/C(O)=C2\C(=O)C(=O)N(CCCn3ccnc3)C2c2ccccc2F)c1C (centres undefined) ?
StopGo FLuc: -1%; 2A Renilla: -6%

Results for CC(=O)N1CCc2c(sc3c2c(=O)n(CCc2ccccc2)c(=O)n3Cc2ccccc2C)C1 ?
StopGo FLuc: inconclusive; 2A Renilla: -36%

Results for Cn1nc(-c2ccccc2F)c2cc(C(=O)N3CCN(c4ccc(F)cc4)CC3)sc21 ?
StopGo FLuc: inconclusive; 2A Renilla: inconclusive

How did CCOCCCNC(=O)CSCc1nc(-c2ccc(OCC)cc2)oc1C do in these assays?
StopGo FLuc: inconclusive; 2A Renilla: 9%

How did Cc1ccccc1CNC(=O)Cn1cnc2c1c(=O)n(C)c(=O)n2C do in these assays?
StopGo FLuc: 7%; 2A Renilla: -9%

What do the screens show for `O=S(=O)(CCc1ccccc1)c1ccccc1`?
StopGo FLuc: 40%[activator]; 2A Renilla: 28%

How did CCOC(=O)c1c(S(=O)(=O)N2CCC(C(=O)Nc3ccccc3OC)CC2)c(C)n(CC)c1C do in these assays?
StopGo FLuc: -10%; 2A Renilla: -6%

How did CC(C)CCNC(=O)CSc1nc2ccsc2c(=O)n1Cc1ccccc1Cl do in these assays?
StopGo FLuc: -17%; 2A Renilla: 17%

What do the screens show for `NCCS`?
StopGo FLuc: 10%[11.5 µM]; 2A Renilla: -8%

How did CCOC(=O)c1ccc2c(c1)N(Cc1cccc([N+](=O)[O-])c1)C(=O)c1ccccc1S2 do in these assays?
StopGo FLuc: 6%; 2A Renilla: -1%

What do the screens show for `CSc1cccc(N2C(=O)N(Cc3ccc([N+](=O)[O-])cc3)c3ccccc3S2(=O)=O)c1`?
StopGo FLuc: -20%; 2A Renilla: 0%

Results for COc1ccccc1OCCNC(=O)c1ccc2c(c1)NC(=O)CS2 ?
StopGo FLuc: 24%; 2A Renilla: 4%

How did O=C(Nc1cccc(Cl)c1)c1nc2ccccc2nc1N1CCOCC1 do in these assays?
StopGo FLuc: -14%; 2A Renilla: -5%

Results for N#Cc1cccc(NC(=O)CCC(=O)c2ccc3c(c2)OCCCO3)c1 ?
StopGo FLuc: 0%; 2A Renilla: 12%

Results for O=C(O)c1c[nH]c2ncccc12 ?
StopGo FLuc: -2%; 2A Renilla: -15%

Results for CN(C(=O)CSc1nc(C2CCCC2)nc2c1c(=O)n(C)c(=O)n2C)c1ccccc1 ?
StopGo FLuc: -11%; 2A Renilla: -13%

What do the screens show for `Cc1cc(SCC(=O)N(C)C)nc2c(C)cccc12`?
StopGo FLuc: 11%; 2A Renilla: -7%

Results for COc1cc(C(=O)Nc2ccc3nc(SCc4ccc(C)cc4)sc3c2)cc(OC)c1OC ?
StopGo FLuc: -6%; 2A Renilla: -7%

What do the screens show for `O=C1C(c2ccc(F)cc2)N(CCc2ccc(Cl)cc2)C(=O)CN1C1CCCCCC1` (centres undefined)?
StopGo FLuc: -7%; 2A Renilla: 13%

How did Cc1ccccc1C(=O)OCc1cc(=O)n2nc(C(C)C)sc2n1 do in these assays?
StopGo FLuc: 105%[activator]; 2A Renilla: 2%

Results for OCCNC(=S)Nc1ccc(F)cc1 ?
StopGo FLuc: -3%; 2A Renilla: -1%

What do the screens show for `CCc1cccc(NC(=O)Cn2c(=O)n(-c3ccccc3C)c(=O)c3c2c2cc(C)ccc2n3C)c1`?
StopGo FLuc: -5%; 2A Renilla: -6%

What do the screens show for `Cc1ccc(NC(=O)CN(Cc2ccccc2)S(=O)(=O)c2ccc3nc(C)sc3c2)c(C)c1`?
StopGo FLuc: 1%; 2A Renilla: 0%

Results for COc1ccc(CC(=O)Oc2ccc(Br)cc2Cl)cc1 ?
StopGo FLuc: -5%; 2A Renilla: -8%

What do the screens show for `CCc1ccc(-n2nc(C)c3c(C)cc(=O)n(CC(=O)Nc4ccc(C(C)=O)cc4)c32)cc1`?
StopGo FLuc: -11%; 2A Renilla: -17%

How did CCN1CCN(C(c2ccccc2Cl)c2c(O)cc(C)n(CCOC)c2=O)CC1 (centres undefined) do in these assays?
StopGo FLuc: -7%; 2A Renilla: -4%

Results for Cc1ccc(C(C)NS(=O)(=O)c2cccs2)o1 (centres undefined) ?
StopGo FLuc: 5%; 2A Renilla: 20%

What do the screens show for `COc1ccc2c(CNCc3ccc(Cl)cc3)c(C(=O)O)n(Cc3ccccc3C)c2c1`?
StopGo FLuc: -16%; 2A Renilla: 6%

How did COc1ccc(OC)c(/C=C(/C#N)C(=O)C(C)(C)C)c1 do in these assays?
StopGo FLuc: 11%; 2A Renilla: 11%

Results for O=S(=O)(c1ccc2nc(N3CCN(c4cccc(Cl)c4)CC3)ccc2c1)N1CCCCC1 ?
StopGo FLuc: -10%; 2A Renilla: -1%

How did O=C(CSc1ncnc2nc[nH]c12)Nc1cc(Cl)ccc1Cl do in these assays?
StopGo FLuc: -4%; 2A Renilla: 7%

How did COc1ccc(Br)cc1/C=C(/C#N)C(=O)C(C)C do in these assays?
StopGo FLuc: 43%[activator]; 2A Renilla: 0%

How did CC(C)n1nc(C(=O)NCc2cccs2)c2ccccc2c1=O do in these assays?
StopGo FLuc: 7%; 2A Renilla: 22%

Results for COc1cc(Cl)c(C)cc1NC(=O)CCOc1cc(C)ccc1C ?
StopGo FLuc: -6%; 2A Renilla: -6%

What do the screens show for `Cc1sc(C2C(C#N)=C(N)N(c3ccc(Cl)cc3)C3=C2C(=O)CCC3)cc1CN1CCOCC1` (centres undefined)?
StopGo FLuc: -23%; 2A Renilla: 5%

What do the screens show for `CCOc1ccc(NS(=O)(=O)c2ccc(NC(=O)N3CCCC3)cc2)cc1`?
StopGo FLuc: 6%; 2A Renilla: -6%

What do the screens show for `N#Cc1ccc(NC2=NS(=O)(=O)c3ccccc32)cc1`?
StopGo FLuc: 0%; 2A Renilla: 0%

What do the screens show for `O=C(Nc1ccc(C(F)(F)F)cc1)C1CCN(c2cnccn2)CC1`?
StopGo FLuc: -21%; 2A Renilla: -21%

Results for CCOC(=O)C1=C(C)Oc2ncn3nc(-c4ccccn4)nc3c2C1c1ccc(OC)c(OC)c1 (centres undefined) ?
StopGo FLuc: 4%; 2A Renilla: 0%

How did O=C(CN1CCSc2ccccc21)N1CCN(c2ccccc2)CC1 do in these assays?
StopGo FLuc: -21%; 2A Renilla: -19%

Results for Cc1cc(CS(=O)(=O)CC(=O)NC2CCCCCC2)on1 ?
StopGo FLuc: -8%; 2A Renilla: -19%

What do the screens show for `CC1=C(C(=O)OC(C)(C)C)C(c2ccc(F)cc2)C(C#N)=C(N)O1` (centres undefined)?
StopGo FLuc: -4%; 2A Renilla: -15%

Results for Nc1nccnc1C(=O)Nc1cccc(NC(=O)c2ccncc2)c1 ?
StopGo FLuc: 9%; 2A Renilla: -8%

How did COc1cc2ccccc2cc1C(=O)Nc1nnn(C)n1 do in these assays?
StopGo FLuc: 0%; 2A Renilla: -2%

Results for CCn1c(C(=O)N2CCC(C(=O)N3CCN(c4ccc(OC)cc4)CC3)CC2)cc2sccc21 ?
StopGo FLuc: inconclusive; 2A Renilla: -1%

How did CC(C)CCOC(=O)c1cc2cc(Br)ccc2oc1=O do in these assays?
StopGo FLuc: -4%; 2A Renilla: -8%

Results for N#Cc1cn2ncnc2nc1N ?
StopGo FLuc: 11%; 2A Renilla: 2%

Results for Cc1ccc(-c2c(C)sc(NC(=O)CC3(CC(=O)O)CCCC3)c2C(N)=O)cc1C ?
StopGo FLuc: 6%; 2A Renilla: -12%

How did COc1ccccc1CNC(=O)c1c2c(nc3ccccc13)C(=O)N(C1CCCCC1)C2 do in these assays?
StopGo FLuc: -10%; 2A Renilla: 3%

How did COc1ccc(N(Cc2cc(CN3CCOCC3)cs2)S(=O)(=O)c2cccc(C#N)c2)cc1 do in these assays?
StopGo FLuc: 7%; 2A Renilla: 7%

Some of the compounds tested. The share of hits here may be higher or lower than overall.
